VDR inh: blocks the human vitamin D receptor; Potency, µM, for inactives: max response, negative = inhibition, hits mostly inhibitors; VDR-SRC2-3 peptide fluorescence polarization, 2 h; 0.93% of 400,000 active; AID 504847; P11473; active = well fitted inhibition curve with a large enough effect; inconclusive = small, poorly fitted or top-dose-only effect, or another doubt; inactive = no such curve, though single readings can be large or run the other way; also: series mostly up to about 120 µM
Target sequence (P11473 whole entry, looked up): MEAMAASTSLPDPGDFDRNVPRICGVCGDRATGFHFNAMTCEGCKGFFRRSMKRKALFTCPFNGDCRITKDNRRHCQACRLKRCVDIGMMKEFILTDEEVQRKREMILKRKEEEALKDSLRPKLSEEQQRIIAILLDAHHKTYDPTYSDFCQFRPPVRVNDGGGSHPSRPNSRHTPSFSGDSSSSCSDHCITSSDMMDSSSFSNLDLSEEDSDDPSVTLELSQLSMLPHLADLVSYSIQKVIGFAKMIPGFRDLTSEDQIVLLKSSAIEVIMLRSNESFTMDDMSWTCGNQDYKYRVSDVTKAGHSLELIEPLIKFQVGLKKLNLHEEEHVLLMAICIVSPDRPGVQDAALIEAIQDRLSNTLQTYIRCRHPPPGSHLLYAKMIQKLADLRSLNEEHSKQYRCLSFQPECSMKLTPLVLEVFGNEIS
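Measured by FP: displacement of SRC2-3 coactivator peptide from VDR by library compounds, following a two-hour ambient incubation.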
The depositor's hits bear a star; & = joins results of further samples. % is scaled to controls: 0 for no effect and ±100 for the full control effect; potency is read from the fitted curve at half-maximal effect. An excerpt; the hit share may differ from the screen's.

For O=C(CN1C(=O)C2CCCCC2C1=O)Nc1nc(-c2ccc(F)cc2)cs1 (stereo unspecified) the results were VDR inh -8%.
For CCC[N+](CC#CCO)(CC#Cc1ccccc1)CCC the results were VDR inh 5%.
`CC(C)N(C(=O)COC(=O)[C@H](C)NC(=O)c1ccco1)c1ccccc1` gave VDR inh -8%.
`O=S(=O)(Nc1ccc(-n2cnnn2)cc1)c1cccs1` gave VDR inh 1%.
Screening Cc1cc(C)c2nc(SCC(=O)NCCN3C(=O)CSC3=O)cc(C)c2c1 returned VDR inh -9%.
For CC1(CC(=O)N/N=C/c2cc([N+](=O)[O-])c(O)cc2O)OCCO1 the results were VDR inh inconclusive.
Screening CC(C)CCNC(=O)c1nn(C)c2c1CSc1ccccc1-2 returned VDR inh 3%.
O=C(O)C1CCN(C(=O)CSc2nnc3ccccn23)CC1 was read as VDR inh -7%.
Screening COC(=O)CSc1nnc(-c2cccc(O)c2)o1 returned VDR inh 14%.
Cc1cccc(-n2c(N)cc(=O)nc2SCC(=O)Nc2cc(C)on2)c1 was read as VDR inh -4%.
Screening Cc1nc(N2CCN(c3ccccn3)CC2)c2c(C)c(C(=O)Nc3ccc(F)cc3)sc2n1 returned VDR inh 10%.
For COc1cc(Cl)c(NC(=O)CCS(=O)(=O)c2cc3c(cc2Cl)NC(=O)CO3)c(OC)c1 the results were VDR inh 6%.
`CCC(C)(C)n1nnnc1C(c1cc2ccc(OC)cc2[nH]c1=O)N1CCN(C2CCCCC2)CC1` (stereo unspecified) gave VDR inh 3%.
CCOc1ccc(CNc2ccc(N3CCCC3)cc2)cc1 was read as VDR inh 4µM*.
For CCC(CC)c1nnc(NC(=O)c2ccc([N+](=O)[O-])cc2)s1 the results were VDR inh 6%.
`Cc1noc(-c2ccc(C(F)(F)F)cc2)c1NC(=O)Nc1ccc(Cl)cc1` gave VDR inh 4%.
CC(=O)C1C(=O)CC(c2ccc(Cl)cc2)CC1=O (stereo unspecified) was read as VDR inh -8%.
`N#Cc1ccccc1NC(=O)c1ccccc1OCC(=O)Nc1ccc2c(c1)oc1ccccc12` gave VDR inh 4%.
For CCCc1cc(O)c2c(C)cc(=O)oc2c1 the results were VDR inh 8%.
Screening CC(=O)N1CCc2c(sc3c2c(=O)n(-c2ccccc2)c(=O)n3CC(=O)c2ccccc2)C1 returned VDR inh -8%.
For COCCn1c(SCC(=O)c2ccc(Cl)cc2)nnc1C(C)C the results were VDR inh inconclusive.
For Cc1ccc(NC(=O)COC(=O)c2cc(=O)c3cc(F)ccc3o2)cc1 the results were VDR inh -2%.
Screening CC(=O)NC(CCS(C)(=O)=O)C(=O)Nc1cc(C)ccc1C (stereo unspecified) returned VDR inh -25%.
Screening COc1cc(/C=C/C(=O)OCC(=O)Nc2ccc(S(N)(=O)=O)cc2)ccc1O returned VDR inh -9%.
For COc1cc(/C=N/NC(=O)Cn2cnc3c2c(=O)n(C)c(=O)n3C)ccc1O the results were VDR inh inconclusive.
CCCCCCCCCCC/C=C\C/C=C\CCCC(=O)O was read as VDR inh -1%&-1%.
CCN(c1ccc(OCC(=O)OCC(=O)c2c(N)n(C)c(=O)n(C)c2=O)cc1)S(=O)(=O)c1ccccc1 was read as VDR inh 24%.
`CCc1ccc(NC(=O)Cn2nnc(C(=O)NCc3ccco3)c2N)cc1` gave VDR inh -9%&-21%.
For CCCc1cc(-c2n[nH]c(C(=O)OCC)c2-c2cscn2)c(O)cc1O the results were VDR inh 17%.
`Cc1c(C(=O)Nc2ccccc2Cl)oc2ccc(S(=O)(=O)N3CCCCC3)cc12` gave VDR inh 0%.
Screening Cc1ccc(S(=O)(=O)C2(C(=O)NC3CCCCC3)CC2)cc1 returned VDR inh -3%.
Screening CC1(C)NC(=O)N(c2ccc([N+](=O)[O-])c(C(F)(F)F)c2)C1=O returned VDR inh 6%&14%&3%&-5%.
Cc1ccc(OCC(=O)NCCCNC(=O)c2cnccn2)cc1C was read as VDR inh -14%.
For O=C(CN1CCc2cc3c(cc2C1)OCCCO3)Nc1c(F)cccc1F the results were VDR inh 7%.
`CCCc1c(O)c2ccccc2[nH]c1=O` gave VDR inh 4%.
For COc1ccc(C2/C(=C(/O)c3ccc(C)cc3)C(=O)C(=O)N2CCCN2CCOCC2)cc1 (stereo unspecified) the results were VDR inh -1%.
COc1cc(C2C(=O)N(C3CCC(C)CC3)CC(=O)N2CCc2ccc(Cl)cc2)ccc1OC(C)C (stereo unspecified) was read as VDR inh 0%.
For Cc1ccsc1/C=N/N1CCN(Cc2ccccc2)CC1 the results were VDR inh 5%.
For CC1CCCC(NC(=O)C2CCC(CNc3c(N4CCCCC4)c(=O)c3=O)CC2)C1C (stereo unspecified) the results were VDR inh -14%.
`CC1(C)CC2(C)OCCN2C(=S)N1` (stereo unspecified) gave VDR inh 14%.
`CC(C)C[C@H]1CN([C@@H](CC(C)C)CN2CCC[C@@H]2CN2C(=O)C(=O)NC[C@@H]2Cc2ccccc2)C(=O)C(=O)N1CCc1ccccc1` gave VDR inh -9%.
For Cc1cc(OC(=O)c2c(C)cc(OC(=O)c3c(C)cc(O)cc3O)cc2O)cc(O)c1C(=O)O the results were VDR inh inconclusive.
Cc1cc(C(=O)CSc2nnc(N)s2)c(C)n1CCc1ccc(F)cc1 was read as VDR inh 12%.
Screening CCOC(=O)N1CCN(C(=O)c2ccc(CS(=O)(=O)c3ccccc3OC)o2)CC1 returned VDR inh -8%.
For COc1cccc(-c2cc(NCc3ccc(OC)cc3OC)ncn2)c1 the results were VDR inh -7%.
CN(c1ccc(C(=O)NCc2cccnc2)cc1)S(=O)(=O)c1ccc(Cl)cc1 was read as VDR inh 7%.
C=CCn1c(SCCC(=O)O)nnc1-c1cccs1 was read as VDR inh 25%.
`O=C(N/N=C/c1cc(Br)cs1)c1c[nH]c2ccccc12` gave VDR inh -6%.
CCOC(=O)C(C)Sc1ccc2nnc(CCNS(=O)(=O)c3ccccc3)n2n1 (stereo unspecified) was read as VDR inh -13%&1%.
Cc1cccc(S(=O)(=O)NNC(=O)c2sc(C)nc2C)c1 was read as VDR inh 1%.
For CCN(CC)CCNS(=O)(=O)c1ccc2c3c(cccc13)C(=O)N2 the results were VDR inh 4%.
Screening Cc1cccc(C(=O)NCC2CCN(C(=O)c3cccc(C)c3)CC2)c1 returned VDR inh 19%.
For Cc1ccc(/C=N/N2CCN(C3c4ccccc4-c4ccccc43)CC2)s1 the results were VDR inh -10%.
COc1ccccc1N1CCN(C(=O)c2cc(=O)c3cc(C)cc(C)c3o2)CC1 was read as VDR inh 8%.
Screening COc1cccc(N2CCN(Cc3cccnc3)CC2)c1 returned VDR inh 3%.
`COc1ccc(Cn2c(CCC(=O)Nc3cc(OC)c(OC)c(OC)c3)nc3cccnc32)cc1` gave VDR inh 9%.
For COc1ccc(-c2coc3cc(OC)cc(OC)c3c2=O)cc1 the results were VDR inh 5%&-11%.
O=C1[C@H]2[C@@H](/C=C/c3ccccc3)N3C(=O)CN(CC4CC4)C(=O)[C@@]3(Cc3ccccc3)[C@H]2C(=O)N1c1ccccc1 was read as VDR inh -5%.
Nc1c(C(=O)Nc2cccc(Cl)c2)sc2nc3c(cc12)CN(Cc1ccccc1)CC3 was read as VDR inh 0%.
Screening COCCNC(=O)c1ccc(Cl)c(Cl)c1 returned VDR inh -2%.
For CN(C)S(=O)(=O)c1ccc(Cl)c(NC(=O)c2ccncc2)c1 the results were VDR inh 6%.
O=[N+]([O-])c1cccc(-c2ccc(/C=N/Nc3nc(N4CCCCC4)nc(N4CCCCC4)n3)o2)c1 was read as VDR inh -8%.
For O=C(Cc1ccc(Cl)cc1)NCC(=O)N1CCCCC1 the results were VDR inh -1%.
`CC(C)C(CO)NC(=O)CC(=O)NC(CO)C(C)C` (stereo unspecified) gave VDR inh 8%.
`Cc1cc(C)c(NS(=O)(=O)c2ccc(NC(=O)CCC(=O)O)cc2)c(C)c1` gave VDR inh 9%.
Screening COc1ccc(Nc2nnc(-c3ccc(C)c(S(=O)(=O)NCc4nc5ccccc5[nH]4)c3)c3ccccc23)cc1 returned VDR inh -24%.
For CCc1ccc(N(C(=O)c2csnn2)C(C(=O)NC2CCCC2)c2cccnc2)cc1 (stereo unspecified) the results were VDR inh -2%.
CC1CN(Cc2ccccc2)c2nc3c(c(=O)[nH]c(=O)n3C)n2C1 (stereo unspecified) was read as VDR inh -1%.
`COc1ccc(CNC(=O)CN2C(=O)NC3(CCCCCC3)C2=O)cc1` gave VDR inh -3%.
Screening CC1=CC(C)(C)N(C(=O)CN2C(=O)CCC2=O)c2ccccc21 returned VDR inh -1%.
For CC(/C=C/c1ccccc1)=N/NC(=O)CNC(=O)c1ccc2c(c1)OCO2 the results were VDR inh 1%.
For CCCc1nc2sc3c(c2c(=O)n1NC(=O)CCC(=O)OC)CCCC3 the results were VDR inh -1%.
`CCOC(=O)c1[nH]c(C)c(CN(Cc2ccco2)C(=O)C(F)(F)F)c1C` gave VDR inh 13%.
For O=C(CCc1nc2ccccc2c(=O)[nH]1)OCC(=O)N1CCc2ccccc21 the results were VDR inh -7%.
`O=C(NNC(=O)c1ccc(F)cc1)c1ccncc1` gave VDR inh -9%.
O=[N+]([O-])c1ccc(NN=Cc2cccc3ccccc23)cc1 was read as VDR inh 1%.
Screening COc1ccc(C(=O)n2c(SC)nc3cc4c(cc32)OCCO4)cc1 returned VDR inh -3%.
`Cc1cccc(C(=O)OC(C)C(=O)Nc2ccc(S(=O)(=O)N3CCCC3)cc2)c1O` (stereo unspecified) gave VDR inh -8%.
Screening Cc1ccccc1Nc1c(-c2ccc(N3CCOCC3)cc2)nc2ccc(Cl)cn12 returned VDR inh -18%.
`O=C1OC2(c3ccccc31)c1ccccc1-c1ccccc12` gave VDR inh -1%.
Screening COC(=O)c1ccc(S(=O)(=O)NCc2ccco2)o1 returned VDR inh -21%.
For CCSc1ccccc1C(=O)NCc1cccnc1 the results were VDR inh -6%.
`CNCCC=C1c2ccccc2CCc2ccccc21` gave VDR inh inconclusive.
For CCc1c(C)nc2ncnn2c1Nc1ccc(C)cc1 the results were VDR inh -25%.
Cc1nc2c(n1C1CCCCC1)C(=O)c1ccccc1C2=O was read as VDR inh -22%.
For CCOc1ccc(C/C(N)=N/n2cnnc2)cc1 the results were VDR inh 11%.
`O=C(CN(CCO)c1ccccc1)NC12CC3CC(CC(C3)C1)C2` gave VDR inh 4%.
Screening CC(=O)c1c(C)[nH]c(C(=O)OC(C)C(=O)Nc2cc(S(=O)(=O)N3CCCCC3)ccc2Cl)c1C (stereo unspecified) returned VDR inh -10%.
For CN1CCCC1CCNS(=O)(=O)c1ccc(Br)cc1 (stereo unspecified) the results were VDR inh 11%.
For C=CCNc1nc(-c2cccc(OC)c2O)nc2ccccc12 the results were VDR inh -13%.
For CCOC(=O)c1c(-c2ccc(-c3ccccc3)cc2)csc1NC(=O)CCN1CCOCC1 the results were VDR inh -12%.
Screening COc1ccc(N2CCN(C(CNS(=O)(=O)c3cccs3)c3cccnc3)CC2)cc1 (stereo unspecified) returned VDR inh 3%.
`CCN1C(=O)c2ccccc2S(=O)c2ccc(C(=O)N3CCN(c4ccccc4)CC3)cc21` (stereo unspecified) gave VDR inh -18%.
O=C(Cc1ccc(Cl)cc1)NCC(c1cccs1)S(=O)(=O)c1ccc(Cl)cc1 (stereo unspecified) was read as VDR inh 14%.
Screening CC1Cc2ccccc2N1C(=O)Cn1cnc2ccccc21 (stereo unspecified) returned VDR inh 1%.
Screening Cc1ccc(Cl)cc1NC(=O)Nc1c(C)n(C)n(-c2ccccc2)c1=O returned VDR inh -1%&-5%.
For CCOC(=O)c1c(NC(=O)c2nc(SCC)ncc2Cl)sc2c1CCCC2 the results were VDR inh 14%.
CC(C)(C)c1nnc(SCC(=O)c2ccccc2)n(N)c1=O was read as VDR inh inconclusive.
`O=[N+]([O-])c1ccccc1S(=O)(=O)n1cnc2ccccc21` gave VDR inh 6%.
`Cc1ccc(-c2nnc(SCC#CCOC(=O)c3ccco3)o2)cc1` gave VDR inh -4%.
For Cc1cc2c(cc1NC(=O)c1ccccc1C)n(C)c(=O)c(=O)n2C the results were VDR inh 7%.
CC(=O)N(c1ccc(N(C(C)=O)S(=O)(=O)c2cccs2)cc1)S(=O)(=O)c1cccs1 was read as VDR inh -4%.
`Cc1ccc(Cn2c(CNC(=O)Cc3cccc(C)c3)nc3cccnc32)cc1` gave VDR inh 6%.

In the list so far, these have an aryl thioether with sulfur outside any ring:
Screening Cc1cc(C)c2nc(SCC(=O)NCCN3C(=O)CSC3=O)cc(C)c2c1 returned VDR inh -9%.
O=C(O)C1CCN(C(=O)CSc2nnc3ccccn23)CC1 was read as VDR inh -7%.
Screening COC(=O)CSc1nnc(-c2cccc(O)c2)o1 returned VDR inh 14%.
Cc1cccc(-n2c(N)cc(=O)nc2SCC(=O)Nc2cc(C)on2)c1 was read as VDR inh -4%.
For COCCn1c(SCC(=O)c2ccc(Cl)cc2)nnc1C(C)C the results were VDR inh inconclusive.
Cc1cc(C(=O)CSc2nnc(N)s2)c(C)n1CCc1ccc(F)cc1 was read as VDR inh 12%.
C=CCn1c(SCCC(=O)O)nnc1-c1cccs1 was read as VDR inh 25%.
CCOC(=O)C(C)Sc1ccc2nnc(CCNS(=O)(=O)c3ccccc3)n2n1 (stereo unspecified) was read as VDR inh -13%&1%.
Screening COc1ccc(C(=O)n2c(SC)nc3cc4c(cc32)OCCO4)cc1 returned VDR inh -3%.
For CCSc1ccccc1C(=O)NCc1cccnc1 the results were VDR inh -6%.
For CCOC(=O)c1c(NC(=O)c2nc(SCC)ncc2Cl)sc2c1CCCC2 the results were VDR inh 14%.
CC(C)(C)c1nnc(SCC(=O)c2ccccc2)n(N)c1=O was read as VDR inh inconclusive.
`Cc1ccc(-c2nnc(SCC#CCOC(=O)c3ccco3)o2)cc1` gave VDR inh -4%.

Screens from PubChem BioAssay.
